Screening results as filed in PubChem BioAssay.
Mtb growth: Mycobacterium tuberculosis H37Rv growth inhibition, cell based, confirmatory dose response (AID 1949); most inactive calls were filed without a number and no value below 0 was filed; one-dose inhibition, % at 10 µg/mL; IC50 in µg/mL for titrated hits; 1.6% of 100,000 active;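 active = confirmed in a dose series; inconclusive = about 50% or more but not retested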;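 also: bacteria grown 7 days with compound before Alamar blue readout; 0% = untreated bacteria and 100% = reference antibiotic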
An asterisk follows results filed as active; i = inactive; ? = inconclusive. The list is partial. The share of hits here may be higher or lower than overall.

compound | Mtb growth
CC(C)c1cc(C(N)=O)c(NC(=O)C2CCC2)s1 | 0%
O=C(O)Cc1ccc(NC(=O)c2ccc(Br)o2)cc1 | i
CC1CCc2cc(F)ccc2N1C(=O)C12CCC(C)(C(=O)O1)C2(C)C (stereo not given) | 4%
COc1ccc(C2CC(c3ccc4ccccc4c3O)=NN2C(C)=O)cc1OC (stereo not given) | i
CC(=O)Nc1ccc(C(=O)OC2CCCCC2)cc1 | 23%
COc1ccc(NC(=O)C(=O)NCc2ccco2)c(OC)c1 | i
COc1ccc(NC(=O)c2cc(F)c(F)cc2Cl)cn1 | i
O=C1CC(c2cccs2)Sc2nc(-c3ccccc3)c(-c3ccccc3)n21 (stereo not given) | i
O=C(NCCCN1CCOCC1)c1cc(-c2ccc(Cl)s2)nc2ccccc12 | i
Cc1cc(Br)c(NC(=O)CSc2nc3ccccc3[nH]2)cc1C | ?
COc1ccc(NC(=O)Nc2ccc(C)cc2OC(F)F)cc1OC | 2%
CC(CCc1ccccc1)NC(=O)Cc1ccccc1 (stereo not given) | i
COC(=O)c1ccc(NC(=O)c2ccc(C(C)C)cc2)cc1 | i
COc1ccc(C2(CNS(=O)(=O)c3ccccc3)CCCC2)cc1OC | 3%
O=C(Nc1ccc(N2CCOCC2)cc1N1CCOCC1)c1ccc(Br)cc1 | 3%
CC1CCc2cc(F)ccc2N1S(=O)(=O)c1cc(Cl)ccc1Cl (stereo not given) | i
CNC(=S)Nc1cccc(C(F)(F)F)c1 | i
O=C(CSc1nnnn1-c1ccccc1)Nc1ccc2c(c1)OCCO2 | i
Cc1ccc([N+](=O)[O-])cc1S(=O)(=O)Nc1ccc(O)c(Cl)c1 | 0%
N#C/C(=C\c1ccc(OC(=O)c2cccs2)cc1)S(=O)(=O)c1ccccc1 | 16%

Following part:
compound | Mtb growth
CC1=C(C(=O)Nc2ccccc2)C(c2ccc(F)cc2)C2=C(CC(C)(C)CC2=O)N1 (stereo not given) | i
Cc1cc(Cl)ccc1N(CC(=O)N(C)C)S(C)(=O)=O | i
CCCOc1ccc(C2C(C(=O)OCC)=CN(C(C)C)C=C2C(=O)OCC)cc1 | i
CN1CCn2c1nc(N1CCOCC1)nc2=O | 1%
Cn1c(SCC(=O)c2ccccc2)nnc1-c1ccncc1 | i
O=C1C=C(c2ccccc2)C(=O)c2ccccc21 | 2.7µg/mL*
O=C1CC(c2cccc(C(F)(F)F)c2)c2cc3c(cc2N1)OCCO3 (stereo not given) | 7%
O=C(COc1ccc(C2CCCCC2)cc1)Nc1ccc(N2CCN(C(=O)c3ccco3)CC2)cc1 | i
Cc1cc(Cl)c(OCCN2CCN(C)CC2)c(Br)c1 | i
COc1ccc(C)cc1NC(=O)c1c(-c2ccccc2)noc1C | i
CCn1c(SCC(=O)NC(c2ccccc2)c2ccccc2)nc2ccccc2c1=O | i
Cc1ccc(S(=O)(=O)N(CC(=O)N2CCC(C)CC2)Cc2ccccc2F)cc1 | i
Cc1ccc(S(=O)(=O)Nc2cc(Sc3ncn[nH]3)c(O)c3ccccc23)cc1[N+](=O)[O-] | 3%
Nc1ccccc1Sc1ncnc2sc3c(c12)CCCC3 | i
CC(C)C1C(C#N)=C(N)Nc2oc(-c3ccccc3)nc21 (stereo not given) | i
O=C(CNC(=O)C1CCCCC1)NNC(=S)NC(=O)c1cccs1 | i
CCc1cc2c(=O)c(-c3ccccc3Cl)c(C)oc2cc1OC | i
COc1ccc(-c2noc(-c3c(-c4ccccc4Cl)noc3C)n2)cc1OC | i
COc1cc(OC)nc(NC(=O)CSc2nc3ccccc3[nH]2)n1 | i
O=C1c2cccc3cc([N+](=O)[O-])cc(c23)C(=O)N1c1ccc(I)cc1 | 2%

Further structures follow:
compound | Mtb growth
S=C(Nc1ccc(OCc2ccccc2)cc1)Nc1cccc(Cl)c1Cl | i
O=C(CCc1ccccc1)Nc1ccc2c(c1)OCCO2 | i
COc1cccc(OC)c1OCCCCN(C)C | i
Cc1nc(NC2CCCC2)c2c(C)c(C)sc2n1 | i
CN1C(=O)/C(=N/OC(=O)c2ccccc2I)c2ccccc21 | 1%
COc1ccc(NC(=S)NC(=O)c2ccccc2F)cc1[N+](=O)[O-] | i
CC(=O)Nc1cc(C(=O)c2ccccc2)ccc1N1CCOCC1 | i
COc1cc(CNc2ccc(Cl)cc2)cc(Br)c1OCc1ccc([N+](=O)[O-])cc1 | 5%
COc1ccc(N(Cc2cc3ccc(C)cc3[nH]c2=O)C(=O)c2cccnc2)cc1 | i
Cc1cc(C)c(C#N)c(N2CCN(Cc3ccc(Cl)cc3)CC2)n1 | ?
Cc1cc(C(=O)O)ccc1-c1ccc(C=O)o1 | i
Brc1ccc(Nc2ncnc3c2cnn3Cc2ccccc2)cc1 | ?
COc1ccccc1C(=O)Nc1ccc(NC(=O)C(F)(F)F)cc1 | i
Cc1nn(Cc2ccc(Cl)cc2Cl)c(C)c1NC(=O)Nc1ccccc1C(F)(F)F | i
COc1ccc(S(=O)(=O)N2CCC(C(=O)Nc3ccc4c(c3)OCCO4)CC2)cc1 | 2%
COc1ccccc1NC(=O)c1oc2cc(C)c(C)cc2c1C | i
COc1cc(C(=S)N2CCOCC2)ccc1OCC(=O)Nc1ccc(F)cc1 | i
COc1ccccc1N1CCN(C(=O)CN(c2ccc(C)c(C)c2)S(C)(=O)=O)CC1 | i
Cc1csc(NC(=O)CN2C(=O)/C(=C/c3ccccc3F)SC2=S)n1 | 1%
O=C(Nc1ncc(CN2CCOCC2)s1)C(c1ccccc1)c1ccccc1 | i

(next part)
compound | Mtb growth
COc1ccc(S(=O)(=O)Nc2ccccc2C(=O)NC(C)c2ccccc2)cc1C (stereo not given) | i
Cc1ccc(OCCOCCNC(C)(C)C)c([N+](=O)[O-])c1 | i
O=C(CSCc1cccc(Cl)c1)Nc1cccc([N+](=O)[O-])c1 | i
CN1C(=O)c2ccc(C(=O)NC3CCCCC3)cc2C1=O | i
Cc1ccc(Cl)cc1N1CCN(C(=O)CC23CC4CC(CC(C4)C2)C3)CC1 | 4.4µg/mL*
Cc1ccc(NC(=O)c2cc(N)ccc2N2CCOCC2)cc1 | i
CC(=O)NC(=S)Nc1ncc(I)cc1C | i
Cc1cc(Br)c(NC(=O)CSc2nnc(CCCOc3ccc(Cl)cc3Cl)n2C)cc1C | 0%
COc1cc(Cl)c(C)cc1NC(=O)c1cc(Cl)ccc1OC | i
COc1ccccc1C(=O)N1CCN(C(=O)c2ccccc2F)CC1 | i
CCC(=O)Oc1ccc(C(=O)Nc2cc(Cl)ccc2C(=O)O)cc1 | i
Cc1ccc(N2CC(C(=O)Nc3ccccc3C(F)(F)F)CC2=O)cc1 (stereo not given) | i
CCN(c1cccc(C)c1)S(=O)(=O)c1c(C)cc(C)cc1C | i
Cc1cc(C(C)(C)C)ccc1OCCCN1CCN(C)CC1 | 33%
Cc1ccccc1C(=O)N1CCN(c2ccc(NC(=O)c3ccc(C(C)C)cc3)cc2)CC1 | i
CC(C)(C)NC(=O)COc1ccccc1C(=O)NCCOc1ccccc1 | i
O=C(CCc1ccccc1)Nc1cccc(NC(=O)CCc2ccccc2)c1 | 2%
CC1CCN(C(=O)CN(c2cc(Cl)cc(Cl)c2)S(C)(=O)=O)CC1 | i
COC(=O)c1c(NC(=O)C2C3CCC(C3)C2C(=O)O)sc(C)c1-c1ccc(C)c(C)c1 (stereo not given) | i
CCOc1ccc(CCNC(=O)c2cccnc2N2CCOCC2)cc1OCC | i

Arranged by count of non-hydrogen atoms (lowest first): part of the list above
compound | Mtb growth
Cc1cc(C(C)(C)C)ccc1OCCCN1CCN(C)CC1 | 33%
Cc1ccc(NC(=O)c2cc(N)ccc2N2CCOCC2)cc1 | i
O=C(CCc1ccccc1)Nc1cccc(NC(=O)CCc2ccccc2)c1 | 2%

The list continues.
compound | Mtb growth
Cc1cc(C)cc(C(=O)Nc2ccc(NC(=O)c3ccccc3)c(C)c2)c1 | 31%
CCc1ccc(N(CC(=O)Nc2ccc(I)cc2)S(C)(=O)=O)cc1 | i
CCOC1Cc2ccccc2N(C(N)=O)c2ccccc21 (stereo not given) | 2%
COC(=O)C1=C(C)Nc2nnnn2C1c1ccc(C(=O)OC)cc1 (stereo not given) | i
COc1ccc(NC(=O)C(C)Sc2ccc(Cl)cc2)cc1OC (stereo not given) | i
Cc1onc(-c2ccccc2Cl)c1C(=O)Nc1ccc2c(c1)Cc1ccccc1-2 | i
CCOC(=O)C(Sc1nc(-c2ccccc2)cc(-c2ccccc2)c1C#N)C(C)=O (stereo not given) | i
CC(=O)Nc1ccccc1-c1nc2ccccc2nc1OCC(=O)c1ccc(Br)cc1 | 0%
Cc1cccc(C)c1NC(=O)C(C)c1ccccc1 (stereo not given) | i
O=C(CCC(=O)OCC(=O)c1ccc(Cl)c(Cl)c1)Nc1ccccc1C(F)(F)F | i
COc1cccc(OC)c1C(=O)Nc1nc2ccc([N+](=O)[O-])cc2s1 | i
Fc1ccc(NC(=S)NCc2ccccc2Cl)cc1 | i
S=c1nc(-c2ccc(Br)cc2)n(Cc2ccco2)c2c1CCCC2 | i
Nc1nnc(SCC(=O)N2c3ccccc3Sc3ccccc32)s1 | i
CCCOc1ccc(-c2csc(NC(=O)c3ccco3)n2)cc1 | i
O=C(Cc1cccs1)Nc1ccc(C(=O)c2ccccc2)cc1NC(=O)Cc1cccs1 | i
COc1cc(OC)c(OC)cc1/C=C(/C#N)c1ccc(Cl)cc1 | i
CN1CCN(C(=O)c2ccc(CN(c3ccccc3)S(=O)(=O)c3ccccc3)cc2)CC1 | 1%
O=C(Nc1ccc(-c2nc3ccccc3s2)c(Cl)c1)c1ccc(Br)o1 | i
Cc1cc(C(=O)Nc2sc3c(c2C#N)CCC(C)C3)c(C)o1 (stereo not given) | i

Some of the entries above in another layout:
COc1cccc(OC)c1OCCCCN(C)C
  Mtb growth: i

Nc1ccccc1Sc1ncnc2sc3c(c12)CCCC3
  Mtb growth: i

(more compounds)
compound | Mtb growth
C=CCNC(=O)C(=O)NCCCN(C)C | i
CC(=O)c1sc2nc(-c3ccccc3)cc(C)c2c1N | 1%
COc1cc(OC)c(C(=S)N2CCCCC2)cc1OC | i
Clc1cccc(Cl)c1-c1nnc2ccc3ccccc3n12 | 16%
O=C(CSc1nnc(Cc2ccccc2)n1-c1ccc(Cl)cc1)NCc1ccccc1 | i
CC(=O)c1cc2c(cc1NC(=O)c1ccc3c(c1)OCO3)OCO2 | i
COc1ccccc1NC(=O)C1=C(C)Nc2nc(CCCO)nn2C1c1cccnc1 (stereo not given) | i
CC(=O)c1ccc(OC(=O)CCc2ccccc2)cc1 | i
CCOc1ccc(CNc2ccc(C)cc2C)cc1OC | i
O=c1c2ccccc2ncn1CCOc1ccccc1[N+](=O)[O-] | i
COc1ccc(C(=O)O)cc1S(=O)(=O)Nc1ccccc1Cl | i
C#CCOC(=O)CCC(=O)NCCc1ccccc1 | i
O=[N+]([O-])c1ccc(S(=O)(=O)Nc2nnc(C(F)(F)F)s2)cc1 | i
N#Cc1c(SCC(=O)Nc2ccc(F)cc2Cl)nc2c(c1C(F)(F)F)CCCCC2 | i
CCCC(=O)N1CCN(c2ccc(NC(=S)NC(=O)c3ccc(-c4ccccc4)cc3)cc2)CC1 | 5%
c1ccc(COc2ccc(OCCCCN3CCOCC3)cc2)cc1 | i
CC(=O)c1cccc(NC(=O)N2CCCCCC2)c1 | 1%
N#Cc1nc(-c2cccs2)oc1N1CCCC1 | i
NC(=O)C1(N2CCCCC2)CCN(C2CC(=O)N(c3ccc(C(F)(F)F)cc3)C2=O)CC1 (stereo not given) | i
COc1cc(NS(=O)(=O)c2ccc(NC(=O)Cc3ccccc3)cc2)nc(OC)n1 | i

Further structures:
compound | Mtb growth
FC(F)(F)c1ccc(N2CCN(Cc3ccccc3)CC2)nc1 | 2%
c1ccc2c(Nc3ccc(N4CCOCC4)cc3)nc(N3CCOCC3)nc2c1 | i
CC(C)CC(=O)N1CC(C)N(C(=O)CC(C)C)CC1C (stereo not given) | 4%
O=C(NCc1cccs1)c1ccc2c(=O)n(CCCN3CCCC3=O)c(=S)[nH]c2c1 | 1%
CN1C(=O)CC(N2CC=C(c3ccccc3)CC2)C1=O (stereo not given) | i
COc1ccc(Cl)cc1NC(=O)CSC1=C(C#N)C(c2ccccc2)C(C(=O)Nc2ccccc2OC)=C(C)N1 (stereo not given) | i
CN1CCN(NC(=S)Nc2ccccc2F)CC1 | i
CCn1c(SCC(=O)Nc2cccc(F)c2C)nnc1-c1ccc(OC)cc1 | i
NC(=O)c1c(NC(=O)c2ccco2)sc2c1CCCCC2 | i
CN(Cc1ccccc1)C(=O)c1cccc(-c2nnc(-c3ccccc3)o2)c1 | i
Cn1c(=O)c2c(ncn2CC(=O)Nc2ccc(S(=O)(=O)NC(C)(C)C)cc2)n(C)c1=O | 2%
CCSc1ncc(Cl)c(C(=O)Nc2c(C)n(C)n(-c3ccccc3)c2=O)n1 | i
CCc1ccc(CN2CCC(C(=O)NC(C)C)CC2)cc1 | i
N#Cc1conc1-c1ccc(Cl)cc1 | 1%
O=C(Nc1c(F)cc(F)cc1Br)c1ccco1 | i
N#Cc1c(NC(=O)CSc2nnc(CCCOc3ccc(Cl)cc3Cl)o2)sc2c1CCCC2 | i
Cc1c(C)n(C(=O)CSc2nnc(N)s2)c2ccccc12 | i

Random excerpt: four compounds from above
compound | Mtb growth
NC(=O)c1c(NC(=O)c2ccco2)sc2c1CCCCC2 | i
O=C(Nc1c(F)cc(F)cc1Br)c1ccco1 | i
FC(F)(F)c1ccc(N2CCN(Cc3ccccc3)CC2)nc1 | 2%
CN(Cc1ccccc1)C(=O)c1cccc(-c2nnc(-c3ccccc3)o2)c1 | i
